Marburg entry inh – Marburg virus entry inhibition | Potency, µM (series often up to 37.8 µM), for inactives: top-dose activity change, negative = inhibition, most hits filed as inhibitors | AID 540276 | Marburg virus pseudotyped entry inhibition, cell reporter; control for the full effect not named in the record; about a third of the inactives were read at about 46 µM | 300,000 compounds, 1.8% hits; active = well fitted inhibition curve with a large enough effect; inconclusive = small, poorly fitted or top-dose-only effect, or effect the other way; inactive = flat fitted curve, though single readings scatter; tested in HEK293 cells; about a fifth of its hits are not listed in these tables; note: % is set by controls: 0 for no effect and ±100 for the full control effect; luciferase read-out
LASV entry inh – inhibitors of Lassa virus binding or cell entry | Lassa virus pseudotype entry inhibition, cell reporter; control for the full effect not named in the record | 300,000 compounds, 1.2% hits | Potency, µM (series often up to 37.9 µM), without a hit: at the highest dose activity change, negative = inhibition, actives largely listed as inhibitors; active means well fitted inhibition curve with a large enough effect; inconclusive means small, poorly fitted or top-dose-only effect, or effect the other way; inactive means flat fitted curve, though single readings scatter; tested in HEK293 cells; note: % is set by controls: 0 for no effect and ±100 for the full control effect; nearly all actives have a fitted effect of over 50% in size; luciferase read-out
RE007 growth inh – less growth of the S. pombe RE007 Vpr strain | S. pombe RE007 Vpr strain, BacTiter-Glo ATP luminescence, 24 h; control for the full effect not named in the record | Potency, µM (doses to about 92.2 µM), for inactives: at the top dose activity change, negative = less growth | 360,000 compounds, 0.21% hits | AID 651644; active = well fitted falling curve with a large enough effect; inconclusive = small, poorly fitted or top-dose-only effect; inactive = no such curve, though single readings can be large or run the other way;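 note: % is set by controls: 0 for no effect and ±100 for the full control effect; nearly all actives have a fitted effect of over 50% in size; the assay follows cell death caused by Vpr and the record does not say whether a fall means rescue or toxicity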
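Fission yeast strain RE007, carrying one chromosomally integrated HIV-1 vpr copy, was seeded at OD 0.01 in PMG+AL medium with 23 nL pinned compound. After 24 h at 30 °C and 99% humidity, viability was read by BacTiter-Glo luminescence.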
2A StopGo – lowers the luciferase signal of an FMDV 2A StopGo reporter; human cells with a luciferase reporter of 2A StopGo recoding; control for the full effect not named in the record; Potency, µM (top dose mostly 57.9 µM), for the others: at the highest dose signal change, negative = less light; 410,000 compounds, 1.2% hits; active = well fitted falling curve with a large enough effect; inconclusive = small, poorly fitted or top-dose-only effect; inactive = no such curve, though single readings can be large or run the other way; tested in HEK293T cells; note: % is set by controls: 0 for no effect and ±100 for the full control effect; nearly all actives have a fitted effect of over 45% in size; luciferase light after 4 h
Cruzain inh Det – cruzain (T. cruzi) inhibition with detergent; purified cruzain, Z-FR-AMC fluorescence, 0.01% Triton; Potency, µM, without a hit: max response, negative = inhibition, usual class: inhibitors; 200,000 compounds, 0.43% hits; AID 1478; active = well fitted curve in the direction sought with a large enough effect; inconclusive = small, poorly fitted or top-dose-only effect, or another doubt; inactive = no such curve, though single readings can be large; an effect the other way counts as inactive or inconclusive;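 note: plate controls were neutral wells for no effect and buffer without enzyme for full effect; nearly all actives have a fitted effect of over 40% in size; top concentration of the series not given in the record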
Target sequence (P25779 123-467 limits assumed): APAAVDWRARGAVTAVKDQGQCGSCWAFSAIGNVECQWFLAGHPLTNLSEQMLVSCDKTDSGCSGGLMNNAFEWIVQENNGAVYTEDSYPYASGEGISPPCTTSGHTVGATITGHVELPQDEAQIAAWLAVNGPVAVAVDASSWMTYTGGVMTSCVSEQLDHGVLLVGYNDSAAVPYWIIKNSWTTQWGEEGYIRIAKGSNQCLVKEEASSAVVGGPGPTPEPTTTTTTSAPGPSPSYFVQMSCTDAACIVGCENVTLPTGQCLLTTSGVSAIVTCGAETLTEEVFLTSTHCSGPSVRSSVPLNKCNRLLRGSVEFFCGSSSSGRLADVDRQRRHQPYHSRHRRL
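Enzyme 1.5 nM, Z-FR-AMC 2 uM, NaOAc 100 mM pH 5.5, DTT 5 mM, Triton X-100 0.01%; 15 min RT compound preincubation; kinetic ex360/em450, 60 s delta.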
Cruzain inh noDet – inhibitors of Trypanosoma cruzi cruzain without detergent | P25779 | purified cruzain, Z-FR-AMC fluorescence, no detergent | Potency, µM, for the others: max response, negative = inhibition, hits mostly inhibitors | 200,000 compounds, 2.3% hits | AID 1476; active = well fitted curve in the direction sought with a large enough effect; inconclusive = small, poorly fitted or top-dose-only effect, or another doubt; inactive = no such curve, though single readings can be large; an effect the other way counts as inactive or inconclusive;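 note: plate controls were enzyme without inhibitor for no effect and buffer without enzyme for full effect; nearly all actives have a fitted effect of over 40% in size; top concentration of the series not given in the record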
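Purified cruzain at 1.5 nM, pre-incubated 15 min with compound at room temperature in 100 mM sodium acetate pH 5.5, 5 mM DTT, 0.00005% Triton X-100. Reaction started with 2 uM Z-FR-AMC; AMC fluorescence increase over 60 s gives rate.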
NS1 function inh – influenza NS1 inhibition; S. cerevisiae slowed by influenza A NS1, growth recovery by OD600; AID 2326; 270,000 compounds, 0.4% hits; Potency, µM (top dose mostly 46.1 µM), without a hit: top-dose activity, positive = more growth; note: actives are rising curves; nearly all actives have a fitted effect of over 50% in size
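Read-out: OD600 growth recovery of NS1-expressing budding yeast. Cells grown overnight at 30C in -URA glucose medium, washed, resuspended and diluted 1:100 in 2% galactose assay medium, pH 6.0. Same strain lacking NS1 served as positive control.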
SARS PLpro yeast – SARS-CoV PLP inhibition in yeast; S. cerevisiae expressing SARS-CoV PLpro, growth rescue; control for the full effect not named in the record; 330,000 compounds, 0.19% hits; Potency, µM (series often up to 32.9 µM), for inactives: at the highest dose activity, positive = growth rescue; AID 485353; note: 0% is about no effect; nearly all actives have a fitted effect of over 55% in size; growth read by luminescence after 48 h
* hit, by the source's call; [ ] = dose if it differs, or a comment. Unless noted, calls come from the whole dose curve; as a rule, active means well fitted rising curve with a large enough effect; inconclusive means small, poorly fitted or top-dose-only effect; inactive means no such curve, though single readings can be large or run the other way. Potency is the fitted concentration of half-maximal effect.

What do the screens show for `CC(=O)c1cccc(N(C(=O)Cn2nnc3ccccc32)C(C(=O)NCC2CCCO2)c2ccc(N3CCOCC3)cc2)c1` (centres undefined)?
Marburg entry inh: 26%[46.1 µM]; LASV entry inh: -17%; RE007 growth inh: -6%; 2A StopGo: -17%; NS1 function inh: 8%; SARS PLpro yeast: 1%

How did O=C(Cc1c(O)c2ccccc2[nH]c1=O)NCc1ccccc1 do in these assays?
Marburg entry inh: 1%; LASV entry inh: 0%; RE007 growth inh: 8%; 2A StopGo: -13%; Cruzain inh Det: 0.1%; Cruzain inh noDet: 6%; NS1 function inh: -3%; SARS PLpro yeast: 3%

What do the screens show for `CC(C)Cc1ccc(CN2CCCC(NC(=O)c3nn(C)c(=O)c4ccccc34)C2)cc1` (centres undefined)?
RE007 growth inh: -7%; 2A StopGo: -22%; NS1 function inh: 10%; SARS PLpro yeast: -2%

What do the screens show for `CCOC(=O)C1(C)NC(c2ccc(OC)cc2OC)C2C(=O)N(CC)C(=O)C21` (centres undefined)?
RE007 growth inh: -7%; 2A StopGo: 4%; NS1 function inh: 4%; SARS PLpro yeast: 0%

How did Cc1cc(N2CCN(c3ccccc3)CC2)nc(N2CCOCC2)n1 do in these assays?
Marburg entry inh: -28%[46.1 µM]; LASV entry inh: -23%; RE007 growth inh: -12%; 2A StopGo: -25%; NS1 function inh: 0%; SARS PLpro yeast: 1%

How did Cc1ccsc1/C=N/n1c(-c2ccco2)n[nH]c1=S do in these assays?
Marburg entry inh: 5%; LASV entry inh: 4%; RE007 growth inh: 3%; 2A StopGo: 7%; Cruzain inh Det: 1.9%; Cruzain inh noDet: -11%; NS1 function inh: 12%; SARS PLpro yeast: -6%

Results for Cc1cc(C(=O)C(C)Sc2cccc[n+]2[O-])c(C)n1-c1ccc(Cl)cc1 (centres undefined) ?
Marburg entry inh: inconclusive; LASV entry inh: inconclusive; RE007 growth inh: -13%; 2A StopGo: -7%; NS1 function inh: -33%; SARS PLpro yeast: 3%

What do the screens show for `COc1ccc(OC)c(S(=O)(=O)N2CCN(Cc3nc4ccc(C)cc4o3)CC2)c1`?
LASV entry inh: 21%[46.1 µM]; 2A StopGo: 8%; Cruzain inh Det: -2.8%; Cruzain inh noDet: inconclusive

How did COc1ccc(/C=C(\C#N)C(=O)NC(C)c2ccccc2)cc1O (centres undefined) do in these assays?
Marburg entry inh: -7%[46.1 µM]; LASV entry inh: 1%; RE007 growth inh: -11%; 2A StopGo: -3%; NS1 function inh: -53%; SARS PLpro yeast: -13%

What do the screens show for `COC(=O)CC1COc2ccccc2N1C(=O)c1cc(OC)c(OC)c(OC)c1` (centres undefined)?
RE007 growth inh: 4%; 2A StopGo: -10%; NS1 function inh: -4%; SARS PLpro yeast: 16%

Results for CCn1c(C(=O)NCCc2ccc(OC)c(OC)c2)cc2sc(Cl)cc21 ?
Marburg entry inh: inconclusive; 2A StopGo: 0%; Cruzain inh Det: -11%; Cruzain inh noDet: 10%

How did C/C(=N\NC(=O)c1ccc(C)cc1)c1c(C)[nH]n(-c2ccccc2)c1=O do in these assays?
RE007 growth inh: 8%; 2A StopGo: 17%; NS1 function inh: -38%; SARS PLpro yeast: inconclusive

Results for CCC(Oc1ccccc1F)C(=O)Nc1cc(-c2ccccc2)no1 (centres undefined) ?
Marburg entry inh: inconclusive; LASV entry inh: -17%[46.1 µM]; 2A StopGo: -10%; Cruzain inh Det: -11%; Cruzain inh noDet: -10%

Results for Cc1nc(C)c(-c2nnc(-c3ccccc3Cl)o2)cc1C(=O)NN ?
RE007 growth inh: 2%; 2A StopGo: -9%; NS1 function inh: 21%; SARS PLpro yeast: -1%

Results for CC(=O)Nc1ccc(NC(=O)CSc2nnc3c4ccccc4n(C)c3n2)cc1 ?
Marburg entry inh: 9%[46.1 µM]; LASV entry inh: -3%; RE007 growth inh: -10%; 2A StopGo: -8%; SARS PLpro yeast: 0%

Results for COc1ccc(OC)c(NC(=O)NCc2cccnc2)c1 ?
Marburg entry inh: inconclusive; LASV entry inh: 3%[46.1 µM]; RE007 growth inh: 6%; 2A StopGo: 20%; NS1 function inh: -1%; SARS PLpro yeast: 1%

How did Cc1c(-c2ccco2)[n+](=O)c2c(n1[O-])CCC2 do in these assays?
Marburg entry inh: 7%; LASV entry inh: 7%; RE007 growth inh: 17%; 2A StopGo: -17%; Cruzain inh Det: 3.2%; Cruzain inh noDet: -1%; NS1 function inh: 8%; SARS PLpro yeast: 7%

How did COc1cc2c(cc1OC)C1=NC(=O)CN1C(SCc1ccccc1C)=N2 do in these assays?
Marburg entry inh: inconclusive; LASV entry inh: -15%; RE007 growth inh: 3%[3.69 µM]; 2A StopGo: -23%; Cruzain inh Det: -7.4%; Cruzain inh noDet: inconclusive; NS1 function inh: 29%; SARS PLpro yeast: 1%

What do the screens show for `COc1ccc(NC(=O)CCC(=O)c2cccs2)cc1Cl`?
Marburg entry inh: -14%[46.1 µM]; LASV entry inh: -5%[46.1 µM]; RE007 growth inh: 4%; 2A StopGo: 12%; NS1 function inh: -4%; SARS PLpro yeast: 3%

What do the screens show for `COc1ccccc1C(=O)Nc1ccccc1C(=O)Nc1ccccc1`?
Marburg entry inh: 0%[46.1 µM]; LASV entry inh: 8%; RE007 growth inh: 3%; 2A StopGo: -10%

What do the screens show for `Cn1c(CSc2ncccn2)nnc1SCC(=O)N1CCCCC1`?
Marburg entry inh: 8%; LASV entry inh: 20%[14.3 µM]; RE007 growth inh: 1%; 2A StopGo: 11%; Cruzain inh Det: 2.3%; Cruzain inh noDet: 2%; NS1 function inh: -4%; SARS PLpro yeast: 1%

How did CCOC(=O)/C=C1/N(C)c2ccccc2C1(C)C do in these assays?
Marburg entry inh: 6%[46.1 µM]; LASV entry inh: 13%[46.1 µM]; RE007 growth inh: -4%; 2A StopGo: -9%; NS1 function inh: -8%; SARS PLpro yeast: -5%

Results for O=C(NCCc1ccccc1)c1cc(=O)c2ccccc2o1 ?
Marburg entry inh: -1%[46.1 µM]; LASV entry inh: -3%[46.1 µM]; RE007 growth inh: -7%; 2A StopGo: -6%; NS1 function inh: -3%; SARS PLpro yeast: -1%

How did CN=c1scc(-c2cccs2)n1/N=C/c1ccc(O)c(O)c1O do in these assays?
Marburg entry inh: inconclusive; LASV entry inh: inconclusive; RE007 growth inh: -25%; 2A StopGo: 10µM*; Cruzain inh Det: -24%; Cruzain inh noDet: -23%; NS1 function inh: inconclusive; SARS PLpro yeast: -79%

Results for CCCCCCNc1cc(C)oc(=O)c1C(C)=O ?
Marburg entry inh: inconclusive; LASV entry inh: -2%; RE007 growth inh: 13%; 2A StopGo: -2%; Cruzain inh Det: -1.2%; Cruzain inh noDet: -1%; NS1 function inh: 5%; SARS PLpro yeast: 15%

How did CC(C)(C)C(=O)Nc1c(C(=O)N2CCN(c3ccc(F)cc3)CC2)oc2ccccc12 do in these assays?
LASV entry inh: 20%[46.1 µM]; 2A StopGo: 22%; Cruzain inh Det: -5.7%; Cruzain inh noDet: 14%

Results for COc1ccc(Cn2nnnc2C(c2cccs2)N2CCCCCC2)cc1 (centres undefined) ?
LASV entry inh: -13%; RE007 growth inh: 15%; 2A StopGo: 0%; Cruzain inh Det: -0.4%; Cruzain inh noDet: 1%; NS1 function inh: -26%; SARS PLpro yeast: -23%

Results for O=C(NCCOc1ccccc1F)c1cc(F)c(F)cc1Cl ?
Marburg entry inh: inconclusive; LASV entry inh: inconclusive; RE007 growth inh: 0%; 2A StopGo: -28%; Cruzain inh Det: -10%; Cruzain inh noDet: -4%; NS1 function inh: 22%; SARS PLpro yeast: 23%

How did COc1ccc(NC(=O)C2C3C=CC(C3)C2C(=O)NCc2ccco2)cc1 (centres undefined) do in these assays?
Marburg entry inh: 10%; LASV entry inh: -17%; RE007 growth inh: 17%; 2A StopGo: 31%[activator]; Cruzain inh Det: 7.4%; Cruzain inh noDet: -9%; NS1 function inh: -6%; SARS PLpro yeast: 2%

What do the screens show for `CCOc1ccc(NC(=O)NCc2c(-n3cccc3)sc3c2CCCC3)cc1`?
Marburg entry inh: -9%[46.1 µM]; LASV entry inh: 27%[46.1 µM]; 2A StopGo: -7%; Cruzain inh Det: -11%; Cruzain inh noDet: -10%

What do the screens show for `COc1ccc(S(=O)(=O)CCC(=O)O)cc1`?
Marburg entry inh: 1%[46.1 µM]; LASV entry inh: 11%; RE007 growth inh: 23%; 2A StopGo: -5%; Cruzain inh Det: 4.8%; Cruzain inh noDet: 3%; NS1 function inh: 0%; SARS PLpro yeast: 4%

Results for CCCCC(=O)Nc1cnc(NC(=O)c2cccs2)cc1C ?
RE007 growth inh: 8%; 2A StopGo: 56%[activator]; NS1 function inh: -18%; SARS PLpro yeast: -4%

How did Cc1cc(OCCCSc2nc(-c3ccc(C(C)(C)C)cc3)nc3cc(=O)[nH]n23)ccc1Cl do in these assays?
LASV entry inh: -8%[46.1 µM]; 2A StopGo: -16%; Cruzain inh Det: -7.0%; Cruzain inh noDet: inconclusive

What do the screens show for `O=C(NCCCCc1ccccc1)C1CC(c2ccccc2C(F)(F)F)=NO1` (centres undefined)?
RE007 growth inh: -21%; 2A StopGo: 2%; NS1 function inh: -36%; SARS PLpro yeast: -4%

What do the screens show for `O=C(NCCCN1CCOCC1)c1ccc2c(c1)N(Cc1cccc(Cl)c1)C(=O)CS2`?
Marburg entry inh: inconclusive; LASV entry inh: -17%[46.1 µM]; RE007 growth inh: -1%; 2A StopGo: 14%; NS1 function inh: -2%; SARS PLpro yeast: -1%

How did Cc1ccc(NC(=O)c2ncn(-c3ccccc3)n2)cc1Cl do in these assays?
Marburg entry inh: inconclusive; LASV entry inh: 2%[46.1 µM]; 2A StopGo: 41%[activator]; Cruzain inh Det: -3.1%; Cruzain inh noDet: -2%

How did CCN(CC(=O)NCc1ccc(F)cc1)Cc1nc2cc(Cl)ccc2c(=O)[nH]1 do in these assays?
Marburg entry inh: 0%; LASV entry inh: 12%; RE007 growth inh: -19%; 2A StopGo: 0%; Cruzain inh Det: -5.2%; Cruzain inh noDet: 6%; NS1 function inh: inconclusive; SARS PLpro yeast: inconclusive

Results for CN1CCN(C(=S)NC(=O)c2ccccc2Cl)CC1 ?
RE007 growth inh: -6%; 2A StopGo: 0%; NS1 function inh: 7%; SARS PLpro yeast: 5%

Random draw from the library. Share with any hit: about 4.7%.
